FGF22 binding: binders of recombinant human FGF22 by thermal shift | SYPRO orange fluorescence; percent of sucrose octasulfate shift, DMSO zero | calls only at 9.99 µM | 1.5% of 340,000 active | AID 651658;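 active = melting point raised past a set limit in the mean and every replicate; three in four hits are not shown here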
ALR inh: human ALR oxidase inhibition via reduced H2O2; P55789; purified ALR, DTT oxidation, H2O2 HRP-luminol luminescence; inhibition, % (concentration not given with the values); 3.8% of 290,000 active; AID 485317;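 active = mean and each replicate at 75% or more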;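 note: stock transfer was 7.5 nL into about 7.5 µL; 0% = neutral wells and 100% = wells with inactivated enzyme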
Target sequence (P55789 whole entry, looked up): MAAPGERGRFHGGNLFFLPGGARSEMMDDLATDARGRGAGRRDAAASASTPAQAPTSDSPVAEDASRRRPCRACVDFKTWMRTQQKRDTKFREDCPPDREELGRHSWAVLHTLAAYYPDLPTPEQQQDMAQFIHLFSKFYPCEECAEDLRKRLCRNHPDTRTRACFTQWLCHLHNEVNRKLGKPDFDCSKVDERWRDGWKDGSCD
HNF4A DNA FP: change in binding of human HNF4 alpha to DNA. activity change, % at 10 µM. 0.3% of 360,000 active. HNF4a-FITC DNA binding, fluorescence polarization, 1 h; in the data active = activity change above about 30%, passing the limit was not always enough;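 note: controls were the assay level and a saturating level of protein; the project sought stronger binding though the title names inhibitors; some compounds called inactive have numbers as strong as hits; positive values seem to mean higher polarization but the record does not say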
Ecoli growth: E. coli growth inhibition; OD600 absorbance (no concentration beside the values); 0.21% of 330,000 active; Escherichia coli growth, OD600, 23 h; active compounds read low;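 active = OD600 absorbance below the run mean of sample wells minus 3.6 SD, in any replicate, cut at about 0.56 in these data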;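 note: stock transfer was 300 nL into about 60 µL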
MLL AF4-AF9 inh: blocks AF4 peptide binding to human AF9; P42568; AlphaScreen, biotin-AF4 peptide binding to FLAG-AF9; inhibition, % at 10 µM; 0.47% of 350,000 active; AID 651704;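 active = every replicate reaching a set inhibition limit, whatever the replicate mean, cut at about 25% in these data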;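 note: 0% = plate neutral control median and 100% = total signal loss; the record names both 10 and 1 µM as test concentration; the first replicate is given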
Target sequence (P42568 whole entry, looked up): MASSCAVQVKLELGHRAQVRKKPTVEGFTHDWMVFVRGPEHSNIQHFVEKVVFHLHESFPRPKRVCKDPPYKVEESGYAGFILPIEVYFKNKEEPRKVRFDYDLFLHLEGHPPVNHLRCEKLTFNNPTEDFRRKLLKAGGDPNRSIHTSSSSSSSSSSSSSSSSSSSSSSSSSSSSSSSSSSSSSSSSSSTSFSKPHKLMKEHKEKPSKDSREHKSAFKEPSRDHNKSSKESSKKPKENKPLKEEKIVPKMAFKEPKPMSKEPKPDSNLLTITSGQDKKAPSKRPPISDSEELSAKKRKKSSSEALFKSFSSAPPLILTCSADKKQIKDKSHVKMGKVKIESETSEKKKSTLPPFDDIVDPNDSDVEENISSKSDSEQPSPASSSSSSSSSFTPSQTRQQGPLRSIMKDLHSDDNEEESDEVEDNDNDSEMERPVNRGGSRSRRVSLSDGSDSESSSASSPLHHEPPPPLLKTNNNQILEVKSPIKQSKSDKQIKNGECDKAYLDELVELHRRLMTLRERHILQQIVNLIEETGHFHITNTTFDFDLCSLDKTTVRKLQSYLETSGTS
Ecoli rRNA inh: selective bacterial rRNA inhibition in E. coli; E. coli WT GFP vs humanized-ribosome RFP mutants, fluorescence, 24 h; active compounds read low; DMSO median 0, no signal -100; GFP signal change (wild-type ribosome), % (no concentration beside the values); 1.6% of 350,000 active; AID 720706;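 active = significant combined selectivity score with lowered wild-type GFP, culture density cut under 30%, mutant RFP and density less affected; inactive = any of these conditions unmet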; note: one replicate is shown; some compounds called inactive have numbers as strong as hits
Vif A3G: inhibitors of Vif binding to APOBEC3G peptide, primary screen, biochemical, TR-FRET, GST-Vif 1-94, biotin-A3G peptide, dose response retest (AID 1117319). TR-FRET GST-Vif / biotin-A3G peptide binding; higher % means a stronger effect; test concentration not given here; strong numbers were not always called active. 0.57% of 260,000 active. inhibition, %, or IC50 in µM where a hit was titrated;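 active = above the screen mean plus three standard deviations and confirmed in dose response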;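 note: Vif residues 1-94 fused to GST binding biotinylated APOBEC3G peptide 110-148; 0% = full assay without inhibitor and 100% = GST in place of GST-Vif; retest series ran down from 100 µM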
Ecoli rRNA inh OD600: recorded beside Ecoli rRNA inh, whose call it bears; OD600 change, %; measured here: OD600 growth;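 optical density of the mix in the first replicate; 0 = DMSO median and -100 = no signal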
Ecoli rRNA inh RFP: further read-out of Ecoli rRNA inh, marked with its call; RFP signal change, %; measured here: RFP humanized mutant strains;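 first replicate; 0 = DMSO median and -100 = no signal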
An asterisk follows results filed as active; i = inactive; nt = not tested or not shown; + = active, no number; & = joins results of further samples. This is a subset; the hit share may differ from the screen's.

SMILES | FGF22 binding | ALR inh | HNF4A DNA FP | Ecoli growth | MLL AF4-AF9 inh | Ecoli rRNA inh | Ecoli rRNA inh OD600 | Ecoli rRNA inh RFP | Vif A3G
Cc1nn(CC(=O)N2CCOCC2)c(=O)c2c1sc1ccccc12 | i | -6 | -0.7 | 0.68 | -2.2 | 5 | -1 | -0.8 | -4%
CCOC(=O)N1CCN(S(=O)(=O)c2ccc3c4c(cccc24)C(=O)N3)CC1 | i | -29 | -0.6 | nt | -0.6 | 5 | 2 | 2.6 | 8%
CC1CN(C(=O)CCC(=O)NC(C)c2ccccc2)c2cc(Cl)ccc2O1 (configuration not stated) | i | -4 | 3.2 | 0.81 | -6.5 | -11 | -38 | -4.6 | nt
O=C(O)C1CCCCC1C(=O)N1CCCC1 (configuration not stated) | i | -9 | -0.6 | 0.66 | 2.1 | 12 | 9 | 0.2 | 5%
CCN(CC)CCCN=Cc1c(-c2ccccc2)[nH]n(-c2nc3ccccc3s2)c1=O | i | 98* | 0.6 | 0.68 | 12 | -24 | 4 | 32 | nt
O=S(=O)(/C=C/c1ccccc1)N1CCN(c2cccc(Cl)c2)CC1 | nt | -11 | -1.4 | 0.6 | nt | nt | nt | nt | -4%
CN(C(=O)C(C)(C)C)c1ccc(OCC(=O)N2CCc3ccccc3C2)cc1 | i | nt | 0.1 | 0.68 | -0.8 | 1 | -4 | -0.3 | -5%
CCc1ccc(S(=O)(=O)N2CCN(Cc3ccco3)CC2)cc1 | i | -7 | 3.2 | nt | 3.4 | -11 | -10 | 2.7 | -1%
Cc1ccccc1C(=O)N1CCN(S(=O)(=O)c2cccs2)CC1 | i | -14 | 2.8 | 0.72 | 1.1 | 3 | 0 | 0.5 | nt
Cc1ccc2nc(CSc3nnc(-c4ccco4)n3-c3ccccc3)cc(=O)n2c1 | nt | 8 | 2.7 | 0.68 | nt | nt | nt | nt | 3%
C=CCNC(=O)CSc1nnc(-c2ccccc2Br)n1-c1cccc(C(F)(F)F)c1 | nt | 3 | 1.9 | 0.71 | nt | nt | nt | nt | 19%
O=C(N/N=C/c1cccnc1)c1cc(-c2ccccc2)nc2ccccc12 | i | -12 | 4.1 | nt | 10.0 | 11 | 4 | 3.1 | -7%

Entries shown so far containing an aryl thioether with sulfur outside any ring (two):
SMILES | FGF22 binding | ALR inh | HNF4A DNA FP | Ecoli growth | MLL AF4-AF9 inh | Ecoli rRNA inh | Ecoli rRNA inh OD600 | Ecoli rRNA inh RFP | Vif A3G
Cc1ccc2nc(CSc3nnc(-c4ccco4)n3-c3ccccc3)cc(=O)n2c1 | nt | 8 | 2.7 | 0.68 | nt | nt | nt | nt | 3%
C=CCNC(=O)CSc1nnc(-c2ccccc2Br)n1-c1cccc(C(F)(F)F)c1 | nt | 3 | 1.9 | 0.71 | nt | nt | nt | nt | 19%

More records:
SMILES | FGF22 binding | ALR inh | HNF4A DNA FP | Ecoli growth | MLL AF4-AF9 inh | Ecoli rRNA inh | Ecoli rRNA inh OD600 | Ecoli rRNA inh RFP | Vif A3G
CCn1nc(NS(=O)(=O)c2ccc([N+](=O)[O-])cc2)c2cc3cc(C)ccc3nc21 | i | 21 | -0.7 | 0.67 | 5.5 | -2 | -4 | -1.7 | nt
Cc1c(CC(=O)NCC(=O)O)c(=O)oc2cc3c(cc12)CCC(C)(C)O3 | i | -15 | 1.4 | 0.64 | 0.8 | 4 | -1 | 3.0 | -5%
CCOC(=O)CC(=O)NC1(Cc2ccc(O)cc2)CCCCC1 | i | 13 | 4.3 | 0.69 | -0.6 | 9 | 6 | 0.4 | -5%
COc1ccc(-c2nc(CS(=O)(=O)CC(=O)NCCc3cc(OC)ccc3OC)c(C)o2)cc1 | nt | 99* | 1.4 | 0.7 | nt | nt | nt | nt | 28%
COc1cccc(OC)c1C(=O)Nc1ccc(Cc2ccncc2)cc1 | nt | -1 | 41* | 0.68 | nt | nt | nt | nt | nt
CC(C)Cc1ccc(/C=C/C(=O)N2CCCCC2)cc1 | i | -4 | -0.8 | 0.7 | 0.9 | 2 | 12 | 1.8 | 2%
CC(=O)c1ccc(S(=O)(=O)Nc2ccc3c(c2)OCO3)cc1 | i | 7 | 1.4 | 0.61 | 0.6 | 0 | -4 | -2.4 | nt
C[C@H](CO)N1C[C@H](C)[C@@H](CN(C)Cc2ccc(-c3ccccc3)cc2)Oc2cc(C#C[C@@H](C)O)ccc2S1(=O)=O | i | nt | nt | nt | 1.4 | -3 | 4 | 8.2 | nt
C[C@@H]1CN([C@H](C)CO)S(=O)(=O)c2ccc(C#CCN(C)C)cc2O[C@H]1CN(C)Cc1ccccc1 | i | nt | nt | nt | 14 | -5 | -1 | -2.4 | nt
O=C(/C=C/c1ccco1)N/C(=C\c1ccccc1)C(=O)NCCc1nc2ccccc2[nH]1 | i | 65 | -0.5 | 0.71 | 8.6 | 1 | 3 | -0.3 | nt
CO[C@H]1CN(C)C(=O)c2ccc(NC(=O)c3ccccc3)cc2OC[C@H](C)N(CC2CC2)C[C@H]1C | i | nt | nt | nt | -2.8 | -1 | -3 | -0.3 | nt
CC1CCN(C(=O)CSc2nnc(-c3cccnc3)n2C2CCCCC2)CC1 | i | 0 | -1.5 | 0.76 | -13 | 0 | -1 | -8.9 | 6%&2%

Profiles, looked up by structure. Order of screens: FGF22 binding, ALR inh, HNF4A DNA FP, Ecoli growth, MLL AF4-AF9 inh, Ecoli rRNA inh, Ecoli rRNA inh OD600, Ecoli rRNA inh RFP, Vif A3G
Cc1ccc2nc(CSc3nnc(-c4ccco4)n3-c3ccccc3)cc(=O)n2c1 is listed as nt, 8, 2.7, 0.68, nt, nt, nt, nt, 3%
CCOC(=O)CC(=O)NC1(Cc2ccc(O)cc2)CCCCC1 is listed as i, 13, 4.3, 0.69, -0.6, 9, 6, 0.4, -5%
COc1cccc(OC)c1C(=O)Nc1ccc(Cc2ccncc2)cc1 is listed as nt, -1, 41*, 0.68, nt, nt, nt, nt, nt
CCn1nc(NS(=O)(=O)c2ccc([N+](=O)[O-])cc2)c2cc3cc(C)ccc3nc21 is listed as i, 21, -0.7, 0.67, 5.5, -2, -4, -1.7, nt

Carrying on.
SMILES | FGF22 binding | ALR inh | HNF4A DNA FP | Ecoli growth | MLL AF4-AF9 inh | Ecoli rRNA inh | Ecoli rRNA inh OD600 | Ecoli rRNA inh RFP | Vif A3G
Cc1ccc(S(=O)(=O)Nc2ccc3c(c2)CC(=O)N([C@H](C)CO)C[C@H](C)[C@@H](CN(C)C)O3)cc1 | i | nt | nt | nt | -1.9 | -3 | -7 | -4.1 | nt
CCCCOC(=O)Cn1c(-c2ccccc2)nc2ccccc2c1=O | nt | -5 | 0.3 | 0.71 | nt | nt | nt | nt | nt
COc1ccc(S(=O)(=O)N(C)C[C@@H]2Oc3ccc(NC(=O)Nc4ccc5c(c4)OCO5)cc3CC(=O)N([C@H](C)CO)C[C@H]2C)cc1 | i | nt | nt | nt | -2.1 | 0 | -3 | -2.0 | nt
COC(=O)[C@]1(C)N[C@H](c2ccc(-c3cccc(Cl)c3)cc2)[C@@H]2C(=O)N(C)C(=O)[C@@H]21 | i | -6 | 1.6 | nt | -1.7 | -1 | -6 | 3.4 | nt
COc1ccc(-c2ccc3c(c2)O[C@@H](CN(C)C)[C@H](C)CN([C@@H](C)CO)S3(=O)=O)cc1 | i | nt | nt | nt | 4.1 | -7 | -17 | -2.2 | nt
N#CCSc1n[nH]c2nc3c(c(=O)n12)C1(CCCCC1)Cc1ccccc1-3 | + | 7 | -5.3 | 0.69 | -9.6 | -10 | -13 | -1.0 | 25%
CCOc1cc(C(=O)N/N=C/C2CC=CCC2)cc(OCC)c1OCC (configuration not stated) | i | -3 | -2.4 | nt | 2.7 | 13 | 10 | -1.3 | -5%
CCOCCCNC(=S)N(Cc1ccccc1)Cc1nc2ccccc2c(=O)[nH]1 | i | -7 | -0.6 | 0.66 | 3.6 | -13 | -16 | -3.9 | 1%

Screening data: PubChem, several laboratories
